D2 ag: Beta-Arrestin HTS for Positive Allosteric Modulators of the Human D2 Dopamine Receptor: Agonists; D(2) dopamine receptor (Homo sapiens), P14416; DiscoveRx PathHunter D2 beta-arrestin, luminescence, 90 min; 100% = 57 uM dopamine signal; activation, % (concentration not given with the values); 360,000 tested, 0.084% active; in the data active = activation above about 40%; inconclusive = about 15% to 40%; inactive = below about 15%; further: compound concentration not given in the record; the text of the record calls up to 30% inactive
Target sequence (P14416 whole entry, looked up): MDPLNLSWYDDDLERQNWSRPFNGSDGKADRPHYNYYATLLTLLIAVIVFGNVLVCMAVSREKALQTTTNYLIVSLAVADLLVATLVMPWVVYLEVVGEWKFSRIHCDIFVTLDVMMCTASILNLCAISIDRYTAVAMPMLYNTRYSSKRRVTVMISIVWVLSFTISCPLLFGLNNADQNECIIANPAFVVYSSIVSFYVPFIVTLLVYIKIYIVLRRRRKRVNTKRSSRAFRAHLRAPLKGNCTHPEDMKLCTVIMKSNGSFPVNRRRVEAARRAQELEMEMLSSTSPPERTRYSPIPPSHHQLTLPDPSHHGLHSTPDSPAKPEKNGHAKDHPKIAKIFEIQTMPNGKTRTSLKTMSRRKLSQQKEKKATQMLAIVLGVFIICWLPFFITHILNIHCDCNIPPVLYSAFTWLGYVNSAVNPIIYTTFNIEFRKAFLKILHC
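Agonist mode: compounds alone added to overnight-plated D2 PathHunter cells for 90 min at 37 C, with 57 uM final dopamine (EC100) defining full response. Beta-arrestin recruitment detected by chemiluminescent reagent, read after 1 h at ambient temperature.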
Six1-Eya2 blk: qHTS Assay for Inhibitors of the Six1/Eya2 Interaction. Homeobox protein SIX1 (Homo sapiens) + Protein phosphatase EYA2 (Homo sapiens), …. AlphaScreen GST-Six1/His-Eya2 binding, biochemical; active compounds read low; control for the full effect not named in the record. activity change, % (concentration not given with the values). 360,000 tested, 0.56% active; in the data active = activity change below about -65%; inconclusive = about -30% to -65%; inactive = above about -30%; further: on the % scale 0 is the no-effect control and ±100 the full control effect
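GST-Six1 + His-Eya2 (5X stock: 250/500 nM); Tris pH 8.0, 300 mM NaCl, 0.05% BSA, 0.02% Tween 20; GSH donor/Ni acceptor beads; 1 h 37 °C dark; AlphaScreen readout.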
TRPML1 ag: qHTS for Agonists of the Human Mucolipin Transient Receptor Potential 1 (TRPML1); Mucolipin-1 (Homo sapiens), Q9GZU1; TRPML1-expressing cells, Ca2+ dye fluorescence, FDSS; host cell line not named in the record; reference of the full effect not given here; activation, % (concentration not given with the values); 410,000 tested, 0.12% active; AID 624414, 2012; in the data active = activation above about 50%; inconclusive = about 30% to 50%; inactive = below about 30%; further: 0% is about no effect; the text of the record puts the active cut at 80%
Target sequence (Q9GZU1 whole entry, looked up): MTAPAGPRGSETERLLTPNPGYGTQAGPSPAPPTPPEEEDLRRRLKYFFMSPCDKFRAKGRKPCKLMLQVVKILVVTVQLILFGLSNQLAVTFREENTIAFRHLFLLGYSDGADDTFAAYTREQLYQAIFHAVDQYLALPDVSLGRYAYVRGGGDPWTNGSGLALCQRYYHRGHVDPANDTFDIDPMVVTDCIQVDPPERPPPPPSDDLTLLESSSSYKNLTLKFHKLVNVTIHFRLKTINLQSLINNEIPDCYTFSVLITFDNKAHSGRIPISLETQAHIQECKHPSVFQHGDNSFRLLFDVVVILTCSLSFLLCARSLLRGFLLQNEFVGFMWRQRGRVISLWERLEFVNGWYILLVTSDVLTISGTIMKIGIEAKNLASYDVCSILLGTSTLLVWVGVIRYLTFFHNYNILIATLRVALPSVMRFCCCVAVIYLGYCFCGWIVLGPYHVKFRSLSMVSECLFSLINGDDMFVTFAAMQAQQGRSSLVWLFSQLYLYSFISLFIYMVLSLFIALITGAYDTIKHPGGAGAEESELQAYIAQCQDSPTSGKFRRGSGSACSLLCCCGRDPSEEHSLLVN
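TRPML1-DL cells, Tet-induced overnight (~16 h, 37 degrees C), loaded 45-90 min at room temperature with Ca8 no-wash calcium dye plus quencher. FDSS fluorescence: 10 s baseline, compound pin-transfer, 110 s agonist read, then EC80 54-4 (4uM final) and 110 s antagonist read.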
TRPML1 blocker: qHTS for Inhibitors of the Human Mucolipin Transient Receptor Potential 1 (TRPML1); TRPML1-inducible cells, Ca2+ dye fluorescence, FDSS; active compounds read low; inhibition of EC80 agonist-evoked calcium signal; activity change, negative = inhibition, % (test concentration not listed); 390,000 tested, 0.02% active; AID 624415, 2012; in the data active means activity change below about -50%; inconclusive means about -30% to -50%; inactive means above about -30%;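 further: stimulus is agonist 54-4 at its EC80 concentration; on the % scale 0 is the no-effect control and ±100 the full control effect; compound concentration not given in the record; the text of the record puts the active cut at -80%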
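TRPML1-DL cells, Tet-induced overnight (~16 h, 37 °C) at 1,500 cells/well, were loaded with Ca8 no-wash dye plus quencher for 45-90 min at room temperature. Compounds were pinned during FDSS kinetic reading; agonist 54-4 at EC80 (4 uM final) then added.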
D2 potentiator: Beta-Arrestin HTS for Positive Allosteric Modulators of the Human D2 Dopamine Receptor: Potentiators; D(2) dopamine receptor (Homo sapiens), P14416; 360,000 tested, 0.23% active; potentiation, % (test concentration not listed); DiscoveRx D2 beta-arrestin cells, luminescence, 90 min; 100% = 57 uM dopamine signal; active = potentiation of 50% or more; inconclusive = 30% to 50%; inactive = 30% or less;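 further: compound concentration not given in the record; tested on top of an EC20 dose of dopamine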
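D2 cells co-treated with compound plus 50 nM dopamine (EC20) for 90 min at 37 deg C to detect potentiation. Beta-arrestin recruitment was read as enzyme-fragment luminescence after 1 h at ambient temperature. Full response was set by 57 uM dopamine.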
PINK1 expr mod: A Quantitative High throughput Screen to Identify Chemical Modulators of PINK1 Expression; PINK1 immunofluorescence, high-content cytometry, 24 h; Potency, µM (highest dose often 76.6 µM), for the others: top-dose activation (PINK1 increase), hits mostly activators; 410,000 tested, 0.2% active; AID 624263, 2012; active = well fitted activation curve with a large enough effect; inconclusive = small, poorly fitted or top-dose-only effect; inactive = flat fitted curve, though single readings scatter; cell line not stated here;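 further: potency means the concentration at half of the fitted maximal effect; % of control where 0% means no effect; nearly all actives have a fitted effect of over 65% in size; a mitochondrial uncoupler was the plate control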
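Decision-based qHTS: stable cells, 24 h exposure to five compound concentrations, CCCP as control. Fixed cells stained for PINK1 plus nuclear, mitochondrial and cell markers, cytometer read.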
An asterisk follows results filed as active.

CCCN1CCc2c(sc(NC(=O)c3ccc(S(=O)(=O)N4CCCC4)cc3)c2C(N)=O)C1 was read as D2 ag -0.9, Six1-Eya2 blk 11.8, TRPML1 ag 6.9, TRPML1 blocker -0.1, D2 potentiator -2.9 and PINK1 expr mod 14.8%.
O=C(NC(NC(=S)Nc1ccc(Cl)c(Cl)c1)C(Cl)(Cl)Cl)c1ccco1 (configuration not stated) was read as D2 ag 0.4, Six1-Eya2 blk -13.3, TRPML1 ag -0.1, TRPML1 blocker 1.1, D2 potentiator -33.2 and PINK1 expr mod inconclusive.
Screening C=CCn1c(CCCNC(=O)c2ccccc2OC)nc2ccccc21 returned D2 ag -3.2, Six1-Eya2 blk 1.7, TRPML1 ag -0.1, TRPML1 blocker -3.8, D2 potentiator -20.6 and PINK1 expr mod 1.0%.
`Cc1cc(C)cc(OC(C)C(=O)Nc2nonc2-c2ccc(Br)cc2)c1` (configuration not stated) gave TRPML1 ag 0.5, TRPML1 blocker 7.3 and PINK1 expr mod 15.8µM*.
CN(CC(=O)Nc1ccccc1Cl)C(=O)COC(=O)/C=C/c1cccs1 was read as D2 ag 7.9, Six1-Eya2 blk 5.5, TRPML1 ag 2.0, TRPML1 blocker -4.9, D2 potentiator -1.3 and PINK1 expr mod -1.0%.
Screening CCN(CC)CCCN1C=C2C(=O)C(C)(OC(=O)CCC(=O)OC)C(=O)C(Br)=C2C=C1c1ccc(OC)cc1 (configuration not stated) returned D2 ag 4.6, Six1-Eya2 blk -12.9, TRPML1 ag 0.3, TRPML1 blocker -17.2, D2 potentiator 2.5 and PINK1 expr mod 1.2%.
Screening CCOC(=O)c1ccc(NC(=O)CSc2ccc(-c3cccnc3)nn2)cc1 returned D2 ag 6.0, Six1-Eya2 blk -2.1, TRPML1 ag 0.6, TRPML1 blocker -1.2, D2 potentiator 2.4 and PINK1 expr mod -0.4%.
Screening O=C(c1ccc(-n2cncn2)c2ccoc12)N1CCOCC1 returned D2 ag -2.9, Six1-Eya2 blk 3.3, TRPML1 ag 0.5, TRPML1 blocker 30.4, D2 potentiator -10.2 and PINK1 expr mod -1.0%.
For CCCS(=O)(=O)N1CCN(C(=O)c2cccc(OC)c2)CC1 the results were D2 ag -3.4, Six1-Eya2 blk 2.3, TRPML1 ag 0.0, TRPML1 blocker -22.6, D2 potentiator 1.2 and PINK1 expr mod 5.1%.
`CC(C#N)(CCc1ccccn1)CCc1ccccn1` gave D2 ag -0.1, Six1-Eya2 blk 8.5, TRPML1 ag -0.8, TRPML1 blocker -3.9, D2 potentiator -7.3 and PINK1 expr mod 1.2%.
O=C(Nc1cccn(Cc2c(Cl)cccc2Cl)c1=O)c1ccc(Cl)cc1 was read as D2 ag -4.4, Six1-Eya2 blk -0.2, TRPML1 ag -0.6, TRPML1 blocker 4.1, D2 potentiator -7.5 and PINK1 expr mod inconclusive.
For CCOc1ccc(CC2CCC(=O)NC2=O)cc1 (configuration not stated) the results were D2 ag -2.8, Six1-Eya2 blk 0.5, TRPML1 ag -0.1, TRPML1 blocker -8.8, D2 potentiator -8.7 and PINK1 expr mod 0.4%.
Screening CCCC[C@@H]1C=C(C(=O)O)[C@H](c2ccc3c(c2)OCO3)N1S(=O)(=O)c1ccc(C)cc1 returned D2 ag 0.6, Six1-Eya2 blk 1.0, TRPML1 ag -0.2, TRPML1 blocker -1.2, D2 potentiator -0.3 and PINK1 expr mod -1.2%.
`CC1CCN(c2nc3ccccc3nc2C(C#N)C(=O)OC2CCCCC2)CC1` (configuration not stated) gave D2 ag -5.0, Six1-Eya2 blk 3.9, TRPML1 ag -0.3, TRPML1 blocker 20.2, D2 potentiator -9.0 and PINK1 expr mod inconclusive.
CN(C)S(=O)(=O)Nc1ccc(C(=O)O)cc1 was read as D2 ag 0.5, Six1-Eya2 blk 10.7, TRPML1 ag -0.3, TRPML1 blocker 4.0 and D2 potentiator 3.8.
For Cc1noc(/C=C/N(C)C)c1S(=O)(=O)N1CCC(C(=O)NC(C)(C)C)CC1 the results were D2 ag 0.5, Six1-Eya2 blk -0.1, TRPML1 ag 0.3, TRPML1 blocker 28.5, D2 potentiator 0.3 and PINK1 expr mod 1.8%.
`CCCCCCCC1CC(CSC(=N)N)OC1=O` (configuration not stated) gave D2 ag -5.6, Six1-Eya2 blk 17.1, TRPML1 ag 0.1, TRPML1 blocker 1.3, D2 potentiator -32.5 and PINK1 expr mod inconclusive.
For Cc1ccc(S(=O)(=O)N(C)C)cc1NC(=O)C1CCCN(C(=O)c2ccc(Cl)cc2)C1 (configuration not stated) the results were D2 ag -3.3, Six1-Eya2 blk 0.1, TRPML1 ag 1.0, TRPML1 blocker -5.3, D2 potentiator -2.5 and PINK1 expr mod -0.3%.
CCCCn1c(N)c(N(CC(C)C)C(=O)c2cc(-c3ccc(F)cc3)nc3ccccc23)c(=O)[nH]c1=O was read as D2 ag 0.4, Six1-Eya2 blk 3.7, TRPML1 ag 1.0, TRPML1 blocker -9.8, D2 potentiator -24.0 and PINK1 expr mod 0.2%.
Screening CCOc1ccccc1-n1c(SCC(=O)NC2CCCC2)nnc1-c1ccoc1C returned D2 ag -2.2, Six1-Eya2 blk -6.7, TRPML1 ag -0.1, TRPML1 blocker -3.0, D2 potentiator -5.4 and PINK1 expr mod 0.5%.

Some of these compounds in order of SMILES length, low to high:
Screening C=CCn1c(CCCNC(=O)c2ccccc2OC)nc2ccccc21 returned D2 ag -3.2, Six1-Eya2 blk 1.7, TRPML1 ag -0.1, TRPML1 blocker -3.8, D2 potentiator -20.6 and PINK1 expr mod 1.0%.
`CC1CCN(c2nc3ccccc3nc2C(C#N)C(=O)OC2CCCCC2)CC1` (configuration not stated) gave D2 ag -5.0, Six1-Eya2 blk 3.9, TRPML1 ag -0.3, TRPML1 blocker 20.2, D2 potentiator -9.0 and PINK1 expr mod inconclusive.
Screening CCN(CC)CCCN1C=C2C(=O)C(C)(OC(=O)CCC(=O)OC)C(=O)C(Br)=C2C=C1c1ccc(OC)cc1 (configuration not stated) returned D2 ag 4.6, Six1-Eya2 blk -12.9, TRPML1 ag 0.3, TRPML1 blocker -17.2, D2 potentiator 2.5 and PINK1 expr mod 1.2%.

(next part)
Screening COCC1CCN(C(=O)C2CCC(=O)N(CCc3ccc(Cl)cc3)C2)CC1 (configuration not stated) returned D2 ag 2.3, Six1-Eya2 blk 5.6, TRPML1 ag 0.5, TRPML1 blocker 7.9, D2 potentiator -6.0 and PINK1 expr mod 0.9%.
`O=C(Nc1ccccc1C(F)(F)F)N1CCCC1c1cccnc1` (configuration not stated) gave D2 ag -2.5, Six1-Eya2 blk 8.8, TRPML1 ag 0.2, TRPML1 blocker -18.0, D2 potentiator -9.5 and PINK1 expr mod -0.2%.
Screening CC(=O)Nc1ccc(S(=O)(=O)NC2CCS(=O)(=O)C2)cc1Cl (configuration not stated) returned D2 ag -0.4, Six1-Eya2 blk -10.3, TRPML1 ag 0.0, TRPML1 blocker 8.6, D2 potentiator 15.8 and PINK1 expr mod 0.0%.
For CCCCOc1cc(C)nc(NCc2ccccc2)n1 the results were D2 ag 1.3, Six1-Eya2 blk 40.1, TRPML1 ag 3.0, TRPML1 blocker 48.9, D2 potentiator -18.3 and PINK1 expr mod 6.0%.
`COC1CCCN(C(=O)c2ccc(OC3CCN(CCc4ccccc4)CC3)cc2)C1` (configuration not stated) gave D2 ag -6.0, Six1-Eya2 blk -6.0, TRPML1 ag 1.1, TRPML1 blocker -4.5, D2 potentiator -14.6 and PINK1 expr mod -1.9%.
CCCCn1c(-c2ccc(Cl)cc2)nc2c(=O)n(C)c(=O)[nH]c21 was read as D2 ag 0.7, Six1-Eya2 blk 13.5, TRPML1 ag -0.7, TRPML1 blocker -14.3, D2 potentiator -0.4 and PINK1 expr mod 0.5%.
`CN1OC[C@@H]2CN(S(=O)(=O)c3ccccc3)[C@H](c3cccc(Br)c3)C[C@@H]21` gave D2 ag 1.2, Six1-Eya2 blk 1.5, TRPML1 ag 1.2, TRPML1 blocker 1.4, D2 potentiator -1.0 and PINK1 expr mod 0.2%.
For CCc1ccc(NC(=O)C2CCCN(S(=O)(=O)c3cccc4nonc34)C2)cc1 (configuration not stated) the results were TRPML1 ag -0.9, TRPML1 blocker 8.7 and PINK1 expr mod 5.0%.
For Cn1c(SCC(=O)NNC(=O)Nc2ccc(Cl)cc2)nnc1-c1ccccc1 the results were D2 ag -1.9, Six1-Eya2 blk -5.9, TRPML1 ag 0.4, TRPML1 blocker -23.1, D2 potentiator -4.3 and PINK1 expr mod 4.5%.
O=C(Nc1ccccc1)c1ccc(S(=O)(=O)N2CCCCC2)cc1 was read as D2 ag -3.2, Six1-Eya2 blk 2.8, TRPML1 ag -0.7, TRPML1 blocker -3.1, D2 potentiator -7.2 and PINK1 expr mod 0.4%.
Screening CN1C[C@@H]2C[C@@H](C3=Cc4cc(Cl)ccc4OC3)N3CCC[C@@]23C1=O returned D2 ag 1.0, Six1-Eya2 blk 18.8, TRPML1 ag 0.1, TRPML1 blocker -3.4, D2 potentiator -4.8 and PINK1 expr mod 0.7%.
O=C(COC(=O)C1(c2ccccc2)CCCC1)N1CCNC1=O was read as D2 ag 0.3, Six1-Eya2 blk 4.0, TRPML1 ag -0.4, TRPML1 blocker -9.8, D2 potentiator -4.5 and PINK1 expr mod 2.5%.
Screening COc1ccc(CCNc2nc(C)cc(C)c2C#N)cc1OC returned D2 ag 0.6, Six1-Eya2 blk 2.6, D2 potentiator 13.0 and PINK1 expr mod 1.2%.
O=C(Nc1ccc(C(F)(F)F)cc1)c1ccc(NC(=O)C2CCCO2)cc1 (configuration not stated) was read as D2 ag 0.0, Six1-Eya2 blk 4.1, TRPML1 ag 0.1, TRPML1 blocker -6.8, D2 potentiator -3.3 and PINK1 expr mod 10.1%.
Screening O=C(Nc1ccccc1)Nc1ccc(F)c([N+](=O)[O-])c1 returned D2 ag 0.1, Six1-Eya2 blk -2.2, TRPML1 ag 0.7, TRPML1 blocker 4.7, D2 potentiator -11.9 and PINK1 expr mod inconclusive.
COCCOC(=O)c1c(C)nc(SCC(=O)Nc2ccc(OC)cc2)c(C#N)c1-c1ccco1 was read as D2 ag -3.5, Six1-Eya2 blk -5.5, TRPML1 ag -0.3, TRPML1 blocker 41.5, D2 potentiator -1.4 and PINK1 expr mod 6.0%.
`Cc1cccc(NC(=O)c2cc(-c3cc(Cl)ccc3O)n[nH]2)c1` gave D2 ag -3.1, Six1-Eya2 blk 2.0, TRPML1 ag -0.9, TRPML1 blocker 7.8, D2 potentiator -1.7 and PINK1 expr mod 1.3%.
Cc1ccc(S(=O)(=O)c2c(N)n(Cc3ccco3)c3nc4ccccc4nc23)cc1 was read as D2 ag -1.5, Six1-Eya2 blk 0.9, TRPML1 ag 0.5, TRPML1 blocker -1.7, D2 potentiator -1.3 and PINK1 expr mod 4.3%.

Source: PubChem (National Center for Advancing Translational Sciences (NCATS))
